# NPYLR7 agonist = activates Aedes aegypti NPYLR7 receptor; HEK293T NPYLR7/Galpha15, GCaMP6s calcium fluorescence; activation, % at 10 µM; 0.15% of 270,000 active; AID 1259423; in the data active means activation above about 40%;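 further: 0% = vehicle and 100% = reference agonist at the receptor; some compounds past the cut are filed as inactive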
# NPYLR7 agonist max-min = further read-out of NPYLR7 agonist, marked with its call; activation, %; measured here: Max-Min RFU normalised activation; some inactives read as strong as hits;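 span of the calcium signal over five minutes; 0% = vehicle and 100% = native peptide agonist; compound fluorescence can raise it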
# * marks the source's active call; other numbers are inactive results.
SMILES,NPYLR7 agonist,NPYLR7 agonist max-min
COc1cc(C(=O)Nc2ccc(C)c(-c3nc(C)co3)c2)ccc1OC(C)C,-3,-4
CN1CCNC(=O)C12CCN(C(=O)c1ccc(CN3CCCC3)o1)CC2,23,16
CCSCCC(=O)NCC(CO)c1ccccc1 (configuration not stated),0,74
Nc1nc(N)nc(CSCCOc2ccc(F)cc2)n1,-1,0
CN(C)c1ccc(C=NNC(=O)c2ccc(NS(=O)(=O)c3cccc([N+](=O)[O-])c3)cc2)cc1,-2,-12
c1ccc(-c2noc(CCNC3CCC4(CCNCC4)CC3)n2)nc1,5,1
COc1cccc(CCC(=O)N2CCCN(C)C3(CCN(C)CC3)C2)c1,3,2
COc1ccc(S(=O)(=O)NCC2c3cc(OC)c(OC)cc3CCN2Cc2cccc(C)c2)cc1 (configuration not stated),26,23
CCn1c(-c2ccccc2C)nn(CN2CC(C)OC(C)C2)c1=S (configuration not stated),7,2
CC1=NN(c2ccccc2)C(=O)/C1=C\c1ccc(N2CCOCC2)cc1,-5,-7
Cc1cccn2cc(C(=O)N3CCCC4(CN(C)C(=O)O4)C3)nc12 (configuration not stated),4,2
Cc1ccc2nc(C)c(NC(=O)c3ccccc3Cl)c(=O)n2c1,5,1
Clc1ccc(C(c2ccc(Cl)cc2)n2cc[n+](CC(OCc3ccc(Cl)cc3Cl)c3ccc(Cl)cc3Cl)c2)cc1 (configuration not stated),8,-11
S=c1nc(COc2ccc(Br)cc2)[nH][nH]1,-1,-3
COc1ccc2nc(N3CCN(C(=O)C4CCCN(S(C)(=O)=O)C4)CC3)sc2c1 (configuration not stated),2,3
CCc1n[nH]c(=S)n1/N=C\c1ccc(-c2cc([N+](=O)[O-])ccc2C)o1,0,-2
CCN(C(=O)Cn1ccn2nc(-c3ccc(OC)c(OC)c3)cc2c1=O)c1cccc(C)c1,3,1
O=C1CSC(c2ccccc2F)N1c1cc(Cl)ccc1O (configuration not stated),-12,-19
COc1ccccc1Oc1cc(N2CCN(C(=O)CC(C)C)C(C)C2)ncn1 (configuration not stated),10,8
CC1=C/C(=C\c2ccc3c(c2)OCO3)C(=O)S1,0,0

# Rewritten with bars between the fields: entries from further up.
structure | NPYLR7 agonist | NPYLR7 agonist max-min
COc1cc(C(=O)Nc2ccc(C)c(-c3nc(C)co3)c2)ccc1OC(C)C | -3 | -4
CN1CCNC(=O)C12CCN(C(=O)c1ccc(CN3CCCC3)o1)CC2 | 23 | 16
CCSCCC(=O)NCC(CO)c1ccccc1 (configuration not stated) | 0 | 74
Nc1nc(N)nc(CSCCOc2ccc(F)cc2)n1 | -1 | 0
CN(C)c1ccc(C=NNC(=O)c2ccc(NS(=O)(=O)c3cccc([N+](=O)[O-])c3)cc2)cc1 | -2 | -12
c1ccc(-c2noc(CCNC3CCC4(CCNCC4)CC3)n2)nc1 | 5 | 1
COc1cccc(CCC(=O)N2CCCN(C)C3(CCN(C)CC3)C2)c1 | 3 | 2
COc1ccc(S(=O)(=O)NCC2c3cc(OC)c(OC)cc3CCN2Cc2cccc(C)c2)cc1 (configuration not stated) | 26 | 23
CCn1c(-c2ccccc2C)nn(CN2CC(C)OC(C)C2)c1=S (configuration not stated) | 7 | 2
CC1=NN(c2ccccc2)C(=O)/C1=C\c1ccc(N2CCOCC2)cc1 | -5 | -7
Cc1cccn2cc(C(=O)N3CCCC4(CN(C)C(=O)O4)C3)nc12 (configuration not stated) | 4 | 2
Cc1ccc2nc(C)c(NC(=O)c3ccccc3Cl)c(=O)n2c1 | 5 | 1
Clc1ccc(C(c2ccc(Cl)cc2)n2cc[n+](CC(OCc3ccc(Cl)cc3Cl)c3ccc(Cl)cc3Cl)c2)cc1 (configuration not stated) | 8 | -11
S=c1nc(COc2ccc(Br)cc2)[nH][nH]1 | -1 | -3
COc1ccc2nc(N3CCN(C(=O)C4CCCN(S(C)(=O)=O)C4)CC3)sc2c1 (configuration not stated) | 2 | 3
CCc1n[nH]c(=S)n1/N=C\c1ccc(-c2cc([N+](=O)[O-])ccc2C)o1 | 0 | -2
CCN(C(=O)Cn1ccn2nc(-c3ccc(OC)c(OC)c3)cc2c1=O)c1cccc(C)c1 | 3 | 1
O=C1CSC(c2ccccc2F)N1c1cc(Cl)ccc1O (configuration not stated) | -12 | -19

# Following part
SMILES,NPYLR7 agonist,NPYLR7 agonist max-min
Cc1cc(C(=O)N2CCC2(C)C(=O)O)nn1C(C)(C)C (configuration not stated),1,-1
CC(C)C(=O)N(Cc1nccn1Cc1ccccc1Cl)C1CC1,3,7
CC1(C)CC(=O)C(C2C3=C(CC(C)(C)CC3=O)Oc3ccc(Br)cc32)C(=O)C1 (configuration not stated),1,-3
Cc1ccc(Cn2cnc3c(cnn3CCNC(=O)c3ccc(Br)o3)c2=O)cc1,-4,-11
COc1ccccc1CC1(C)C(=O)Nc2ccc(-c3cccc(C(C)=O)c3)cc21 (configuration not stated),3,4
Cc1n[nH]c(C)c1S(=O)(=O)Nc1cc(-c2ccccc2)nn1C1CCS(=O)(=O)C1 (configuration not stated),-1,-2
COc1ncnc(N)c1CNCC(C)c1ccc(F)c(F)c1 (configuration not stated),7,5
N#CC(=Cc1cccc2ccccc12)c1nc(C2CC2)cs1,2,2
CC1CC(Sc2nnc(Cc3cccs3)n2C2CCCCC2)C(=O)O1 (configuration not stated),5,12
Cn1ncnc1CNC(C)(C)c1ccccc1,2,0
Cc1nc(-c2cc(C(=O)O)n(C)c2)cs1,-2,-6
CCOC(=O)c1[nH]c(CSC(=NC)NC)c(C(=O)OCC)c1C,2,0
COCCN=C(NC(=O)c1cccs1)OC,-5,4
CN1CCN(c2ccc(NC(=O)COc3cc(Cl)ccc3Cl)cn2)CC1,12,12
CC(C)c1nc(C(N)=O)c2[nH]c(=O)n(-c3ccccc3)c2n1,14,11
COc1ccc2[nH]c3c(c2c1)CN(CC1(O)CCCN(CC2CCC2)C1=O)CC3 (configuration not stated),5,6
CC(C)C(Nc1c([N+](=O)[O-])cc(C(F)(F)F)cc1[N+](=O)[O-])C(=O)O (configuration not stated),-11,-14
CCc1c(C(=O)Nc2ccc(F)cc2)c(CC(C)C)nn1-c1ccc(F)cc1,5,12
Cn1nc2c(c1NC(=O)c1ccc3ncsc3c1)CCC2,15,15
C=CCN(Cc1nccn1Cc1cccc(C)c1)C(=O)c1ccccc1F,4,13
COCCN(CC(=O)N(CCc1ccc(OC)c(OC)c1)Cc1sccc1C)C(=O)Cc1ccccc1,-2,7
Cc1oc(-n2c(C)ccc2C)c(C#N)c1C(C)O (configuration not stated),-1,-2
O=C(CSc1nc(=O)n2ccccc2n1)N1CCC(Cc2ccccc2)CC1,2,0
Cc1c(C#N)c(SCC(=O)N2CCCC2c2cccs2)nc2c1CCC2 (configuration not stated),1,36
CCC(NC(=O)NCc1ccn(C(C)C)n1)c1ccncc1 (configuration not stated),0,0
CC(O)CN1CCN(Cc2nnc(C3CC3)n2C)CC1 (configuration not stated),-7,-8
O=C(CSc1nnc(SCc2ccccc2)s1)NN=Cc1cc(Br)ccc1O,-3,-9
CSc1ccc(/C=C2/NC(=S)NC2=O)cc1,-1,-2
COc1ccc(CCNC(=O)CCn2c(C)cc3ccccc32)cc1O,0,9
COCc1cc(C)nc(N/N=C\c2ccc(C)o2)c1C#N,-3,-9
CNC(=O)C1CCN(S(=O)(=O)N2CCOCC2)CC1,12,6
Cc1ccc(C)c(OCc2nnc(NC(=O)c3ccco3)s2)c1,-4,-7
O=C(NCc1cccnc1)c1ccc(-c2cc(-c3cccc4ccccc34)[nH]n2)cc1,-1,5
COc1ccccc1-n1c(-c2ccc(Cl)cc2)cc(C(=O)NCc2ccccn2)c1C,0,5
O=C(Cc1csc(-c2ccco2)n1)NC12CC3CC(CC(C3)C1)C2,1,-1
Cc1cc(C)cc(C(O)c2ncc(-c3ccc(F)cc3)[nH]2)c1 (configuration not stated),-4,-4
CC1c2cccn2CCN1CCC(=O)Nc1ccc2c(c1)OCCO2 (configuration not stated),6,4
O=C1NCC2(CCCN(C(=O)COCc3nc4ccc(F)cc4[nH]3)C2)O1 (configuration not stated),6,5
CC(C)(C)n1cc(C(=O)Nc2cccc(C3SCCCS3)c2)cn1,3,1
CC(C)Cc1nc(CN(C)C2CCC3(CCNCC3)CC2)no1,6,4
Cc1ccc(-n2nc(C(C)(C)C)cc2NC(=O)CN(Cc2ccccc2)C(=O)Nc2cccc(Br)c2)cc1,1,6
O=C(Cn1cnnn1)NCc1ccc(Cl)cc1Cl,0,-1
C=CCn1c(-c2cccc(C)c2)n[nH]c1=S,4,16
Cc1ccc(-c2csc(-n3[nH]c(C)c(N=Nc4ccc(C(N)=O)cc4)c3=O)n2)cc1,-8,-14
CCCCC12CN3CC(C)(CN(C1)C3c1cccs1)C2=O (configuration not stated),2,4
Cc1ccc(CN2CCN(c3nc4c(c(=O)[nH]c(=O)n4C)n3CC(C)C)CC2)cc1,-8,-12
C=C(C)CN1C(=O)NC(C)(c2ccc(Cl)cc2)C1=O (configuration not stated),-1,5
COc1ccc(-c2cc3ccc4c(c3oc2=O)CN(Cc2cccnc2)CO4)cc1OC,31,34
O=C(Cc1cc(-c2ccccc2F)on1)Nc1cccnc1,3,6
Cc1c(Cl)ccc2sc(N(CCN3CCOCC3)C(=O)c3ccc([N+](=O)[O-])cc3)nc12,10,5
# Next section:
SMILES,NPYLR7 agonist,NPYLR7 agonist max-min
CC(=O)NC(c1ccccc1)c1nc(-c2cncnc2)cs1 (configuration not stated),6,2
Cc1ccc2nc(-c3ccccc3C)c(NC3CCCCC3)n2c1,-3,2
Cc1cc(C)nc(-n2nc(C(C)(C)C)cc2OCC(=O)NC2CCCCC2)n1,1,6
CCOC(=O)C(CC(C(=O)OCC)=C1NC(=O)CS1)=C1NC(=O)CS1,1,-1
CCNC(=S)N(Cc1cccc(OC)c1OCc1nc(CO)cs1)C1CC1,29,32
NC(=O)c1cnc2n1CCN(C(=O)c1ccc3ncsc3c1)C2,-11,-14
COCCOC(=O)c1nnn(-c2nonc2N)c1C,17,6
Cc1cccc(C2c3cccn3-c3ccccc3N2C(=O)CN(C(=O)c2ccc(Br)cc2)C2CC2)c1 (configuration not stated),12,9
O=C(NCCN1C(=O)C(=Cc2ccc3c(c2)OCO3)SC1=S)c1ccccc1,2,7
Cc1nc(SCC(=O)c2c(N)n(C3CC3)c(=O)[nH]c2=O)[nH]c(=O)c1CCO,6,11
Cn1cc(CN2CCCN(c3ccc(F)cc3)CC2)cn1,3,3
Cc1ccc(-n2ncc(C)c(C#N)c2=O)cc1,4,4
Cc1cc(C(=O)Nc2cc(C(F)(F)F)ccc2N2CCOCC2)no1,5,3
C=c1ccc(S(N)(=O)=O)cc1=c1nnc2n1NC(C)=c1ccccc1=2,-6,-11
O=C(NCCc1ccccn1)Nc1cccc2c1CCCC2,1,-1
O=C(Cn1cnc2ccccc21)N1CCN(c2ccc(-c3ccco3)nn2)CC1,1,18
COc1cccc(C(C2Sc3ncnn3C2=O)N2CCC(C(N)=O)CC2)c1 (configuration not stated),4,2
COc1ccc(-c2nnc(SCC(=O)c3ccccc3)o2)c(OC)c1,5,2
Oc1ccc(-c2nc3cc(Cl)ccc3s2)cc1,-3,-4
Cc1cc(C)cc(-n2nc(-c3ccco3)cc2N)c1,10,10
CCC1CCc2nc(NC(=O)C(C)n3cccn3)sc2C1 (configuration not stated),6,4
COc1cccc(Cl)c1-c1ccc(CN2CCCCC2)cn1,6,6
O=C(Nc1nnc(-c2ccccc2)s1)c1ccccc1OC(F)F,1,19
Cc1sc2ncnc(NS(=O)(=O)c3ccc(Cl)cc3)c2c1C,-5,-9
O=C(NCCN1CCCCCC1)Nc1ccccc1,-8,-15
N#CC1C(=N)Oc2n[nH]c(-c3ccc4c(c3)OCO4)c2C1c1cccnc1 (configuration not stated),-2,-6
CN1C[C@H](NS(=O)(=O)c2ccc(-c3cnco3)s2)C[C@H]1CO,-2,-3
NC(=O)NC(=O)CCN(Cc1ccco1)c1ccccc1,10,6
CC(NC(=O)c1ccc(-c2cc(Cl)cc(Cl)c2)s1)c1nncn1C (configuration not stated),-2,-4
CC(NC(=O)c1cc(NC(=O)c2cc(C(F)(F)F)cc(C(F)(F)F)c2)ccc1N1CCCC1)c1ccccc1 (configuration not stated),-2,11
COC(=O)C1CCN(C(=O)Cc2cc(-c3ccc(C)cc3)on2)CC1,4,6
Cc1[nH]nc2c1C1(CCSCC1)C(C#N)C(=N)O2 (configuration not stated),-1,-4
CCCCS(=O)c1sc2nc3c(cc2c1N)CCCC3 (configuration not stated),7,1
Cn1cc(CN2CCCC2c2ccccn2)c(-c2ccc(Oc3ccccc3)cc2)n1 (configuration not stated),14,3
O=C(Nc1ncccn1)c1c[nH]c2c(C(F)(F)F)cccc2c1=O,4,2
COc1ccc(/C=C/C(=O)N(C)CCc2ccc(OC)c(OC)c2)cc1,-4,-8
Cc1cc(C)c(C#N)c(SCC(=O)c2cc3ccccc3oc2=O)n1,28,27
Cc1ccc(CN2C(=O)c3ccccc3NC2c2c(C)nn(CCO)c2C)cc1 (configuration not stated),3,1
CN(C)C(=O)C1CCCN(C(=O)Nc2ccc(C(F)(F)F)cc2)C1 (configuration not stated),7,6
CC(NC(=O)CCc1ccc(=O)[nH]n1)c1cnn(-c2ccccc2)c1 (configuration not stated),17,11
CCSc1cncc(N(CC)CCO)n1,22,11
Cc1ccccc1CSc1ncc(C#N)c(N)n1,20,17
CCN(CC)c1ccc(C(=O)NC23CC4CC(CC(C4)C2)C3)cn1,5,3
CCOC(=O)n1c(CC#N)nc2ccccc21,4,3
COc1ccc(N2C(=O)CC(N(Cc3ccco3)C(=O)CCC(=O)O)C2=O)cc1 (configuration not stated),1,0
Cc1ncc2c(n1)CCN(C(=O)NCC1Cc3ccccc3O1)C2 (configuration not stated),8,3
CCn1cc(C(CC(=O)NC2CCN(Cc3ccccc3)CC2)c2ccc3c(c2)OCO3)c2ccccc21 (configuration not stated),-5,1
O=C(Nc1ccc(-n2ccnc2)cc1)C1=CN2CCN(Cc3ccccc3)C(=O)N=C2O1,-3,-4
Cn1c2sc3c(c2c(=O)n2nnnc12)CC(C)(C)OC3,5,-1
CCOCC(=O)NCc1cccnc1Oc1c(C)cccc1C,1,-3
Cc1[nH]n(-c2nc(-c3ccc(Br)cc3)cs2)c(=O)c1N=Nc1ccccc1O,-5,-7
CCOC(=O)Cn1c(=NC(=O)c2cc(Cl)sc2Cl)sc2cc(S(N)(=O)=O)ccc21,-1,-2
Cc1cc(Cl)n2ncc(-c3ccccc3Cl)c2n1,1,8

# This is a subset; rates above refer to the full screens.
